HNF4A DNA FP: change in binding of human HNF4 alpha to DNA; P41235; HNF4a-FITC DNA binding, fluorescence polarization, 1 h; AID 1224865; activity change, % at 10 µM; 0.3% of 360,000 active; in the data active means activity change above about 30%, passing the limit was not always enough;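 further: controls were the assay level and a saturating level of protein; the project sought stronger binding though the title names inhibitors; some compounds called inactive have numbers as strong as hits; positive values seem to mean higher polarization but the record does not say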
Target sequence (P41235 whole entry, looked up): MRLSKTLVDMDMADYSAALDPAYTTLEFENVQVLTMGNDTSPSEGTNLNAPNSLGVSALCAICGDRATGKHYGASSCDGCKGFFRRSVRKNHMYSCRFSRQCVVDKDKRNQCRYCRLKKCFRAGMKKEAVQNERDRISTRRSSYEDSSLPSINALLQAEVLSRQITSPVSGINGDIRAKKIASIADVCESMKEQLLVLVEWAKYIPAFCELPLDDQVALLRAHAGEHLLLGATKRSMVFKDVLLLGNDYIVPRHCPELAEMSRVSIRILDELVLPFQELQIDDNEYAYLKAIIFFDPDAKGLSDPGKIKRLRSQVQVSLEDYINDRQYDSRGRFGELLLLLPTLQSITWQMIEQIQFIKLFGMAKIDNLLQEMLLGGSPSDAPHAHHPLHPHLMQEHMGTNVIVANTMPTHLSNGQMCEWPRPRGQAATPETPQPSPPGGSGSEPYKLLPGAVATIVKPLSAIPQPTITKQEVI
rRNA inh HTS: inhibitors of bacterial rRNA selective over humanized ribosomes; E. coli WT GFP vs humanized-ribosome RFP mutants, fluorescence, 24 h; stronger effect = lower value; DMSO median 0, no signal -100; GFP signal change (wild-type ribosome), % (concentration not given with the values); 1.6% of 350,000 active; AID 720706;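 active means significant combined selectivity score with lowered wild-type GFP, culture density cut under 30%, mutant RFP and density less affected; inactive means any of these conditions unmet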; further: one replicate is shown; some compounds called inactive have numbers as strong as hits
Ecoli growth: blocks Escherichia coli growth; OD600, 23 h; stronger effect = lower value; OD600 absorbance (concentration not given with the values); 0.21% of 330,000 active; AID 1053175;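 active means OD600 absorbance below the run mean of sample wells minus 3.6 SD, in any replicate, cut at about 0.56 in these data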;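 further: stock transfer was 300 nL into about 60 µL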
FGF22 binding: shifts melting point of recombinant human FGF22; recombinant FGF22 thermal shift, SYPRO orange fluorescence; percent of sucrose octasulfate shift, DMSO zero; AID 651658; Q9HCT0; calls only at 9.99 µM; 1.5% of 340,000 active;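 active means melting point raised past a set limit in the mean and every replicate; inconclusive means no clear call; three in four hits are not shown here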
Target sequence (Q9HCT0 whole entry, looked up): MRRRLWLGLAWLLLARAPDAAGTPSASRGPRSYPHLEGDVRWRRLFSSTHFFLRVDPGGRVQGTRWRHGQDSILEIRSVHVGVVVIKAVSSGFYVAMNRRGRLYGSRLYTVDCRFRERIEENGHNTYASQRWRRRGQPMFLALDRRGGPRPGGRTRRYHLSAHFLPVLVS
MLL AF4-AF9 inh: inhibitors of human MLL-AF4/AF9 interaction; AlphaScreen, biotin-AF4 peptide binding to FLAG-AF9; inhibition, % at 10 µM; 0.47% of 350,000 active; P42568; AID 651704;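 active means every replicate reaching a set inhibition limit, whatever the replicate mean, cut at about 25% in these data; inconclusive means mean inhibition reaches that limit but some replicates miss it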;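 further: 0% = plate neutral control median and 100% = total signal loss; the record names both 10 and 1 µM as test concentration; the first replicate is given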
ALR inh: inhibitors of human sulfhydryl oxidase ALR; P55789; 3.8% of 290,000 active; inhibition, % (no concentration beside the values); purified ALR, DTT oxidation, H2O2 HRP-luminol luminescence;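 active means mean and each replicate at 75% or more; inconclusive means only one of the two met; inactive means neither met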;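 further: stock transfer was 7.5 nL into about 7.5 µL; 0% = neutral wells and 100% = wells with inactivated enzyme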
Target sequence (P55789 whole entry, looked up): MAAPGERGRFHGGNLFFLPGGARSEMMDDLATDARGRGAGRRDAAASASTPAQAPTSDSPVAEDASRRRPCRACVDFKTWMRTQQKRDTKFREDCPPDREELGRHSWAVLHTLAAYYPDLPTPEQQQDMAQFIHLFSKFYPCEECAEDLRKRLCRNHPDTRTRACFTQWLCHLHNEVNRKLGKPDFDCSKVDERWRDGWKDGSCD
Vif TR-FRET: inhibitors of Vif binding to APOBEC3G peptide, primary screen, biochemical, TR-FRET, GST-Vif 1-94, biotin-A3G peptide, dose response retest (AID 1117319). TR-FRET GST-Vif / biotin-A3G peptide binding; higher % means a stronger effect; test concentration not given here; strong numbers were not always called active. one-dose inhibition, %; IC50 in µM for titrated hits. 0.57% of 260,000 active;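 active means above the screen mean plus three standard deviations and confirmed in dose response; inconclusive means results disagree or hit not tested in dose response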;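 further: Vif residues 1-94 fused to GST binding biotinylated APOBEC3G peptide 110-148; 0% = full assay without inhibitor and 100% = GST in place of GST-Vif; retest series ran down from 100 µM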
rRNA inh HTS OD600: further read-out of rRNA inh HTS, marked with its call; OD600 change, %; measured here: OD600 growth;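 optical density of the mix in the first replicate; 0 = DMSO median and -100 = no signal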
rRNA inh HTS RFP: also measured in rRNA inh HTS; calls as there; RFP signal change, %; measured here: RFP humanized mutant strains;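 first replicate; 0 = DMSO median and -100 = no signal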
The depositor's hits bear a star; & = joins results of further samples. This is a subset, so the mix of outcomes need not match the whole.

How did COc1ccc(NC(=O)Nc2ccc3c(c2)CC(=O)N([C@H](C)CO)C[C@@H](C)[C@@H](CN(C)C(=O)Nc2ccccc2)O3)cc1 do in these assays?
rRNA inh HTS: 4.4; FGF22 binding: inactive; MLL AF4-AF9 inh: 2.3; rRNA inh HTS OD600: 4.3; rRNA inh HTS RFP: 0.1

What do the screens show for `COc1cc(C(=O)N[C@@H](Cc2c[nH]c3ccccc23)C(=O)O)cc(OC)c1OC`?
HNF4A DNA FP: 4.5; rRNA inh HTS: 1.2; Ecoli growth: 0.717; FGF22 binding: inactive; MLL AF4-AF9 inh: -5.3; rRNA inh HTS OD600: 5.1; rRNA inh HTS RFP: -0.6

How did CN(C)c1ccc(/C=C/c2c([N+](=O)[O-])c(=O)n(C)c(=O)n2C)cc1 do in these assays?
HNF4A DNA FP: -2.9; rRNA inh HTS: 5.0; Ecoli growth: 0.667; FGF22 binding: inactive; MLL AF4-AF9 inh: 7.6; Vif TR-FRET: -2.1%; rRNA inh HTS OD600: 8.3; rRNA inh HTS RFP: -1.1

What do the screens show for `COc1ccc2[nH]cc(C(=O)CCl)c2c1`?
HNF4A DNA FP: -2.4; rRNA inh HTS: 1.5; Ecoli growth: 0.648; FGF22 binding: inactive; MLL AF4-AF9 inh: -10.7; Vif TR-FRET: -10.9%; rRNA inh HTS OD600: -6.6; rRNA inh HTS RFP: 0.9

How did O=C(CS(=O)(=O)Cc1ccccc1)Nc1ccc(Br)cc1F do in these assays?
HNF4A DNA FP: -0.5; rRNA inh HTS: 0.0; Ecoli growth: 0.708; FGF22 binding: inactive; MLL AF4-AF9 inh: -1.7; ALR inh: -6.9; rRNA inh HTS OD600: -1.3; rRNA inh HTS RFP: 2.7

What do the screens show for `Oc1ccc(/C=N/NC(=S)N/N=C/c2ccc(O)cc2)cc1`?
HNF4A DNA FP: 0.7; rRNA inh HTS: -7.2; FGF22 binding: inactive; MLL AF4-AF9 inh: 2.8; Vif TR-FRET: 3.8%; rRNA inh HTS OD600: 0.6; rRNA inh HTS RFP: 7.6

Results for COc1ccc(-c2nnc(SCC(=O)N3CCN(c4ccccc4)CC3)o2)cc1OC ?
HNF4A DNA FP: -6.2; rRNA inh HTS: 7.1; Ecoli growth: 0.693; FGF22 binding: inactive; MLL AF4-AF9 inh: 0.1; ALR inh: -14.0; Vif TR-FRET: inconclusive; rRNA inh HTS OD600: 11.6; rRNA inh HTS RFP: 0.3

What do the screens show for `Cc1nc2sc(-c3ccccc3)cc2c(=O)n1N`?
HNF4A DNA FP: 1.8; rRNA inh HTS: 15.1; Ecoli growth: 0.694; FGF22 binding: inactive; MLL AF4-AF9 inh: 4.4; Vif TR-FRET: 4.8%; rRNA inh HTS OD600: 7.4; rRNA inh HTS RFP: -2.4

How did Cc1ccc(-c2cc(-c3ccc(C)cc3O)[nH]n2)cc1 do in these assays?
HNF4A DNA FP: 1.1; rRNA inh HTS: 1.6; Ecoli growth: 0.679; FGF22 binding: inactive; MLL AF4-AF9 inh: -4.3; ALR inh: 5.4; rRNA inh HTS OD600: 8.7; rRNA inh HTS RFP: -1.7

Results for Cc1ccc(S(=O)(=O)N(C)C[C@@H]2Oc3c(NS(=O)(=O)c4c(C)noc4C)cccc3C(=O)N([C@@H](C)CO)C[C@@H]2C)cc1 ?
rRNA inh HTS: -4.7; FGF22 binding: inactive; MLL AF4-AF9 inh: -0.1; rRNA inh HTS OD600: -5.3; rRNA inh HTS RFP: 0.3

What do the screens show for `O=C(CCSc1ccc(Cl)cc1)Nc1cccnc1`?
HNF4A DNA FP: -0.4; Ecoli growth: 0.683; FGF22 binding: inactive; MLL AF4-AF9 inh: -1.2; ALR inh: -7.5; Vif TR-FRET: 1.4%

What do the screens show for `C/C(=N\Nc1cc(C)nc(-c2ccccc2)n1)c1cccc([N+](=O)[O-])c1`?
HNF4A DNA FP: 3.0; rRNA inh HTS: 7.2; FGF22 binding: inactive; MLL AF4-AF9 inh: 18.5; ALR inh: 0.4; rRNA inh HTS OD600: 2.6; rRNA inh HTS RFP: -1.0

What do the screens show for `CC1CCN(C(=O)CCNC(=O)Cn2cnc3sc4c(c3c2=O)CCCC4)CC1`?
HNF4A DNA FP: 0.7; Ecoli growth: 0.708; ALR inh: -18.6; Vif TR-FRET: 0.0%

How did O=C(CN(CC1CCCO1)S(=O)(=O)c1ccc(S(=O)(=O)NC2CC2)cc1)Nc1ccccc1 (centres undefined) do in these assays?
HNF4A DNA FP: 1.2; Ecoli growth: 0.738; ALR inh: -13.2; Vif TR-FRET: 10.5%&6.6%

Results for CCOC(=O)CN1C(=O)S/C(=C\c2ccc(-c3cccc(C(=O)O)c3C)o2)C1=O ?
HNF4A DNA FP: 1.9; rRNA inh HTS: -7.9; Ecoli growth: 0.7; FGF22 binding: inactive; MLL AF4-AF9 inh: 2.5; ALR inh: -1.3; rRNA inh HTS OD600: -3.2; rRNA inh HTS RFP: 6.1

Results for COC(C[C@H]1O[C@H]1[C@H](O)[C@@H](C)OCc1ccccc1)OC ?
HNF4A DNA FP: -2.6; rRNA inh HTS: 6.7; FGF22 binding: inactive; MLL AF4-AF9 inh: 0.1; Vif TR-FRET: -6.0%; rRNA inh HTS OD600: 9.5; rRNA inh HTS RFP: 11.1

How did COCC(=O)N1C[C@H](C)[C@H](OC)CN(C)C(=O)c2cc(NC(=O)c3cnccn3)ccc2OC[C@@H]1C do in these assays?
rRNA inh HTS: -0.1; FGF22 binding: inactive; MLL AF4-AF9 inh: 1.4; rRNA inh HTS OD600: 0.8; rRNA inh HTS RFP: -2.6

What do the screens show for `CCOC(=O)[C@@H]1[C@H]2COc3ccccc3[C@@H]2N2C(=O)N(c3cccc(Cl)c3)C(=O)[C@]12C`?
HNF4A DNA FP: 4.5; rRNA inh HTS: -9.9; FGF22 binding: inactive; MLL AF4-AF9 inh: 0.7; ALR inh: -5.7; rRNA inh HTS OD600: -6.7; rRNA inh HTS RFP: -18.0

Results for O=C(OCC1CC(c2ccccc2)=NO1)c1ccc(Cl)cc1 (centres undefined) ?
HNF4A DNA FP: -2.0; rRNA inh HTS: 16.2; Ecoli growth: 0.668; FGF22 binding: inactive; MLL AF4-AF9 inh: 6.7; ALR inh: 0.4; Vif TR-FRET: 4.0%; rRNA inh HTS OD600: 11.3; rRNA inh HTS RFP: -1.4

Results for COc1ccc(CNC(=O)[C@H](C)NC(=O)C2CC(=O)N(c3ccc4c(c3)OCO4)C2)cc1 (some centres undefined) ?
HNF4A DNA FP: 2.0; rRNA inh HTS: 8.1; Ecoli growth: 0.68; FGF22 binding: inactive; MLL AF4-AF9 inh: -0.1; ALR inh: -1.3; rRNA inh HTS OD600: 20.5; rRNA inh HTS RFP: -0.3

What do the screens show for `C[C@@H]1CN([C@@H](C)CO)C(=O)Cc2cc(NC(=O)NC3CCCCC3)ccc2O[C@H]1CN(C)S(=O)(=O)c1ccccc1`?
rRNA inh HTS: -1.4; FGF22 binding: inactive; MLL AF4-AF9 inh: 2.2; rRNA inh HTS OD600: -4.2; rRNA inh HTS RFP: 4.5

Results for CCC(=O)N1[C@H](CN(CC)C(=O)c2ccccc2)[C@H](c2ccccc2)[C@@H]1CO ?
rRNA inh HTS: 0.3; FGF22 binding: inactive; MLL AF4-AF9 inh: -1.4; rRNA inh HTS OD600: 1.9; rRNA inh HTS RFP: 0.0

How did Cc1ccc(C2NC(=O)c3c(sc4c3CCN(C)C4)N2)s1 (centres undefined) do in these assays?
HNF4A DNA FP: 9.6; Ecoli growth: 0.63; ALR inh: -15.5; Vif TR-FRET: 14.2%

How did COc1ccccc1NCCC(=O)OCC(=O)NC1CC1 do in these assays?
HNF4A DNA FP: 3.8; rRNA inh HTS: 10.5; Ecoli growth: 0.74; FGF22 binding: inactive; MLL AF4-AF9 inh: -1.6; ALR inh: 98.6*; Vif TR-FRET: 13.8%; rRNA inh HTS OD600: 14.7; rRNA inh HTS RFP: 7.5

Results for COc1cc(C(=O)NCCCNc2nc3cc(C)c(C)cc3cc2C#N)cc(OC)c1OC ?
HNF4A DNA FP: 14.0; rRNA inh HTS: 0.9; Ecoli growth: 0.703; FGF22 binding: inactive; MLL AF4-AF9 inh: -2.9; ALR inh: -6.0; rRNA inh HTS OD600: -1.0; rRNA inh HTS RFP: 3.9

Results for CN(C)CCCOC(=O)c1sc2ccccc2c1Cl ?
HNF4A DNA FP: 1.3; rRNA inh HTS: -7.8; Ecoli growth: 0.596; FGF22 binding: inactive; MLL AF4-AF9 inh: 2.5; ALR inh: 0.9; Vif TR-FRET: -2.8%; rRNA inh HTS OD600: 1.3; rRNA inh HTS RFP: 5.3

How did O=C(NCc1ccc2c(c1)OCO2)C1CC(=O)N(c2ccc(O)cc2)C1 (centres undefined) do in these assays?
HNF4A DNA FP: 0.0; Ecoli growth: 0.708; ALR inh: 99.1*; Vif TR-FRET: -2.6%

Results for COc1ccc(C=NNC(=S)NC23CC4CC(CC(C4)C2)C3)cc1OC ?
HNF4A DNA FP: 1.4; rRNA inh HTS: -1.1; FGF22 binding: inactive; MLL AF4-AF9 inh: 8.0; Vif TR-FRET: -4.2%; rRNA inh HTS OD600: -15.7; rRNA inh HTS RFP: 5.2

How did Cc1ccc2cc3cc(C(=O)NC4CC4)oc3nc2c1 do in these assays?
HNF4A DNA FP: 0.1; rRNA inh HTS: 2.0; Ecoli growth: 0.715; FGF22 binding: inactive; MLL AF4-AF9 inh: -1.3; ALR inh: 0.1; rRNA inh HTS OD600: 2.4; rRNA inh HTS RFP: -2.7

Results for O=C(NNc1ccc([N+](=O)[O-])cn1)Nc1ccc(N=Nc2ccccc2)cc1 ?
HNF4A DNA FP: 2.8; rRNA inh HTS: -4.1*; Ecoli growth: 0.693; FGF22 binding: inactive; MLL AF4-AF9 inh: -9.6; Vif TR-FRET: 8.9%; rRNA inh HTS OD600: 11.7*; rRNA inh HTS RFP: 4.9*

Results for N#Cc1ccc(C(=O)NC(=S)NC2CCCCC2)cc1 ?
HNF4A DNA FP: 13.5; rRNA inh HTS: -1.9; Ecoli growth: 0.666; FGF22 binding: inactive; MLL AF4-AF9 inh: 6.2; ALR inh: 5.8; rRNA inh HTS OD600: -22.0; rRNA inh HTS RFP: -2.8

How did O/N=C/c1cc(Br)ccc1OCc1ccc(F)cc1 do in these assays?
HNF4A DNA FP: 1.3; ALR inh: -8.7; Vif TR-FRET: -2.6%

Results for O=C(NCc1ccco1)c1ccc(S(=O)(=O)c2cccc(S(=O)(=O)N3CCOCC3)c2)cc1 ?
HNF4A DNA FP: -1.2; Ecoli growth: 0.671; ALR inh: -5.0; Vif TR-FRET: 3.4%

How did CCOC(=O)NCc1ccc(S(=O)(=O)Nc2c(C)cccc2C)cc1 do in these assays?
HNF4A DNA FP: 5.3; Ecoli growth: 0.695; ALR inh: -18.8; Vif TR-FRET: 4.3%

How did Cc1ccc(C(=O)CSc2nnc(-c3c[nH]c4ccccc34)o2)cc1 do in these assays?
HNF4A DNA FP: 0.9; Ecoli growth: 0.741; ALR inh: -1.2; Vif TR-FRET: -6.1%

How did O=C(c1cc([N+](=O)[O-])ccc1N1CCOCC1)N1CCN(S(=O)(=O)c2cc(Cl)ccc2Cl)CC1 do in these assays?
HNF4A DNA FP: 2.7; rRNA inh HTS: -2.5; Ecoli growth: 0.686; FGF22 binding: inactive; MLL AF4-AF9 inh: -9.5; Vif TR-FRET: 0.9%; rRNA inh HTS OD600: -9.1; rRNA inh HTS RFP: 2.5

Results for CC(NC(=O)Cn1ncc(Cl)c(Cl)c1=O)C12CC3CC(CC(C3)C1)C2 (centres undefined) ?
HNF4A DNA FP: -7.0; Ecoli growth: 0.703; Vif TR-FRET: -25.8%

Screens: PubChem, several laboratories
